A647 autofl – compound autofluorescence in A647 spectral region; Compound fluorescence, A647 channel (570/671 nm), Tris buffer; 59,000 tested, under 10 active; max dye-equivalent concentration, M; active means above 1 µM dye equivalent; inconclusive means 0.1 to 1 µM; inactive means 0.1 µM or less;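 note: values scaled relative to a standard on each plate; highest value over a series up to 38 µM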
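Compound fluorescence was measured in 100 mM Tris buffer, pH 8.0, after 15 min at room temperature, using 570 nm excitation and 671 nm emission filters. Signal was normalized to a per-plate Alexa 647 standard curve and expressed as dye-equivalent concentration at each compound concentration.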
AID923 – qHTS Assay for Allosteric/Competitive Inhibitors of Caspase-1: Spectroscopic Profiling in AFC Spectral Region. 1.1% of 75,000 active. Potency, µM (titrated, usually from 57.5 µM), inactives show at the highest dose fluorescence increase, most hits filed as activators. AID 923, 2007. compound fluorescence, AFC spectral region (405/520 nm); almost no hit is shown here; active = well fitted activation curve with a large enough effect; inconclusive = small, poorly fitted or top-dose-only effect;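 note: potency is the fitted concentration of half-maximal effect; 0% is about no effect; scaled to a free AFC standard on each plate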
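Compound autofluorescence profiled at 405 nm ex/520 nm em during kinetic caspase 1 run (50 nM enzyme, 5 uM Ac-WEHD-AFC, HEPES pH 7.5, 10 mM DTT). Titration up to 57 uM; baseline from regression intercept, normalized to AFC standard curve.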
TSHR agonist – agonists of human thyroid stimulating hormone receptor. P16473. HEK293-CNG-TSHR cells (CNG channel as cAMP sensor), membrane potential dye, cAMP. 0.48% of 73,000 active. Potency, µM (series often up to 57.1 µM), without a hit: at the top dose activation, most hits filed as activators; active = well fitted activation curve of enough size with the parental cells flat; inconclusive = any curve in the parental cells; inactive = parental cells flat and receptor cells flat or falling; note: potency is the fitted concentration of half-maximal effect; % of control where 0% means no effect; weak receptor curves with flat parental cells got no call and are not listed
Target sequence (P16473 whole entry, looked up): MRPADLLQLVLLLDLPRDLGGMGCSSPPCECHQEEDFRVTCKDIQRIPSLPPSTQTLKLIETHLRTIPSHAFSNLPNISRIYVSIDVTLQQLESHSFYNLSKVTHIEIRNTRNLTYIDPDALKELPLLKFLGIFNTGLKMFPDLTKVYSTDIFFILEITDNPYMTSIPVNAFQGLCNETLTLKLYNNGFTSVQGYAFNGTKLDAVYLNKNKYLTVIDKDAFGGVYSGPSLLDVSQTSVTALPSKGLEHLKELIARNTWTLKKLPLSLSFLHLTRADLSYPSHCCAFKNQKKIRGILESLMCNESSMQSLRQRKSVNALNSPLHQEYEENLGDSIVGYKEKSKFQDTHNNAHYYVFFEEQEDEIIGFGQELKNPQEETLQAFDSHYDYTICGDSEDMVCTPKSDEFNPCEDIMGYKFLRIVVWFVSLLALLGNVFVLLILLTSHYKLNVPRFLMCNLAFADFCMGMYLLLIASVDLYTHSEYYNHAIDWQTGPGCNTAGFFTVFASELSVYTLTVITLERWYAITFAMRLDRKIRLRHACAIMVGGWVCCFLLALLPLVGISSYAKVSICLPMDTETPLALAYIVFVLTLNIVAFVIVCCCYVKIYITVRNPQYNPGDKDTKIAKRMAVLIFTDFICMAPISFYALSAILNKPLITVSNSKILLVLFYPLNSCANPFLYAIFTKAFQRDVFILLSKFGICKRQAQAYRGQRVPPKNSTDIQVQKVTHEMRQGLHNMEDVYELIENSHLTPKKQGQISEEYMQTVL
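HEK 293 cells stably expressing TSHR and a modified CNG channel, with CNG-only parental cells as counterscreen, were preloaded 60 min at room temperature with membrane potential dye containing 100 uM RO 20-1724. Compound exposure was 30 min, and depolarization was read as fluorescence at 590 nm.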
Resorufin fluor – compounds fluorescent in resorufin spectral region | AID 588 | Compound fluorescence, resorufin region 547/598 nm, buffer; active compounds read high | max dye-equivalent concentration, M | 0.04% of 59,000 active; active = above 10 nM dye equivalent; inconclusive = 1 to 10 nM; inactive = 1 nM or less; a few of its hits are not listed in these tables; note: highest value over a series up to 38 µM
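Dye-equivalent concentration values derive from comparing each well's 547/598 nm fluorescence against resorufin standards included on every plate. Incubation was 15 min at room temperature in 100 mM Tris, pH 8.0.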
A488 fluor – compound autofluorescence in A488 spectral region; max dye equivalency, M; 0.1% of 59,000 active; compound autofluorescence, A488 spectral region, dye equivalency; active compounds read high; active = above 10 nM dye equivalent; inconclusive = 1 to 10 nM; inactive = 1 nM or less; about half of its hits are not listed in these tables;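 note: highest value over a series up to 38 µM; compound alone in buffer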
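Compounds pin-transferred into 100 mM Tris buffer, pH 8.0, incubated 15 min at room temperature, then imaged with 480 nm excitation/540 nm emission filters. Fluorescence converted to Alexa 488 dye-equivalent concentration via an on-plate six-point A488 standard curve.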
* hit, by the source's call; i = inactive; ? = inconclusive; . = not tested or not shown; [ ] = remark or other dose. A portion of the library; the hit share may differ from the screen's.

SMILES | A647 autofl | AID923 | TSHR agonist | Resorufin fluor | A488 fluor
Cn1c(=O)c2c(nc(SCCN3CCCCC3)n2Cc2ccc(Cl)cc2)n(C)c1=O | 1.99e-08 | . | . | i | i
COc1ccc(-c2nc3c(c(=O)n(C)c(=O)n3C)n2CC2CC(c3ccccc3)=NO2)cc1OC (stereo not given) | 1e-09 | -0.5% | 4.7% | i | i
O=C(CCC(=O)N(c1ccccc1)C(C(=O)NC1CCCC1)c1ccncc1)Nc1cccnc1 (stereo not given) | 2.23e-08 | -0.4% | 1.0% | i | i
O=C(c1cccc(F)c1)N1CCC2(CCCN(c3ccncc3)C2)CC1 | 3e-09 | 2.8% | ? | i | i
CCOc1ccc(CCNC(=O)c2cc3sccc3n2C)cc1OCC | . | 0.6% | ? | . | .
c1ccc(OCCOc2ccccc2-c2nnco2)cc1 | 2.8e-09 | -3.2% | 7.6% | i | i
COc1ccc(C(=O)N2CCN(Cc3ccccc3C)CC2)cc1OC | 1.03e-08 | 1.2% | 3.8% | i | i
CCCc1ncc(C(O)c2cccc(OC)c2OC)n1C (stereo not given) | . | -1.5% | 2.6% | . | .
O=C(C1CCN(S(=O)(=O)c2ccc(F)cc2)CC1)N1CC=C(c2ccccc2)CC1 | 1.2e-09 | -1.0% | ? | i | i
Cc1cccc(C)c1NC(=O)CC(NCc1ccco1)C(=O)O (stereo not given) | 1e-09 | 1.6% | -2.3% | i | i
CCCCC#CC1C=CC(OC(C)=O)C(COC(C)=O)O1 (stereo not given) | . | -0.7%[11.5 µM] | -3.1%[11.4 µM] | . | .
Oc1c(Cl)cc(CN(Cc2cc(Cl)c(O)c(Cl)c2)C2CCCCC2)cc1Cl | 2.83e-08 | -1.4%[11.5 µM] | ? | i | i
CCCSc1nnc2nc(C)cc(C)n12 | . | 0.5% | -10.8% | . | .
CN(C)C=C1C(=O)c2ccccc2C1=O | 1.61e-08 | . | . | i | i
O=C(O)c1ccc2c(c1)N(Cc1ccccc1F)C(=O)c1ccccc1S2=O (stereo not given) | . | -1.3% | 6.9% | . | .
COc1ccccc1CNC(=O)C(C)NS(=O)(=O)c1ccccc1 (stereo not given) | 2.08e-08 | -2.4% | 7.8% | i | i
Cc1cc(C)cc(C(=O)N(C)[C@H](Cc2ccc(-c3ccccc3)cc2)C(=O)N[C@@H](Cc2c[nH]c3ccccc23)C(=O)O)c1 | . | -9.9% | 22.9% | . | .
COc1ccc(S(=O)(=O)Nc2c(C(=O)O)[nH]c3ccccc23)c(OC)c1 | 7.7e-09 | 0.0% | 5.2% | i | i
COCCCNC(=O)c1c(-c2ccccc2)noc1C | 2.7e-09 | -0.5% | 1.0% | i | i
CCOC(=O)C1=C(c2ccccc2)NC(=O)NC1c1ccc(N(C)C)cc1 (stereo not given) | . | -0.8% | 0.8% | . | .
CCc1cc2c(C)cc(=O)oc2cc1OC(=O)C1CCCN1C(=O)OC(C)(C)C (stereo not given) | 6e-09 | 5.3% | ? | i | i
COCc1nc(-c2ccc(-c3ccc(C)cc3)nc2OC)no1 | 1.31e-08 | 8.2% | -0.9%[11.4 µM] | i | i
Cc1onc(-c2ccccc2Cl)c1C(=O)Nc1nn[nH]n1 | . | 2.2% | ? | . | .
CCn1c(SCc2cc(=O)[nH]c3ccccc23)nc2c1c(=O)n(C)c(=O)n2C | 1e-09 | 0.9% | 3.8% | i | i
COc1cc(NC(=O)c2ccco2)c(OC)cc1NC(=O)CCC(=O)Nc1cc(C)cc(C)c1 | 6.4e-09 | -1.1% | 9.3% | i | i
CCc1ccccc1NC(=O)CSc1nnc([C@@H](NC(=O)OC(C)(C)C)C(C)C)o1 | 5.3e-09 | -0.3% | ? | i | i
COc1cccc(NC(=O)c2ccccc2-c2nc(-c3ccc(Cl)cc3)no2)c1 | 6e-09 | 0.3% | ? | i | i
COc1cccc(C2c3c(oc4cc(C)c(C)cc4c3=O)C(=O)N2CCCN(C)C)c1 (stereo not given) | . | -1.3% | 6.7% | . | .
CC(C)(C)NC(=O)C(c1ccccc1)N(C(=O)c1ccco1)C1CC1 (stereo not given) | 2.81e-08 | -2.7% | 11.7% | i | i
C/C(N)=C(/C#N)C(=O)CSc1nc2ccc(C)cc2[nH]1 | 3.6e-08 | -0.3% | ? | i | i

In the list so far, these have a Cl atom.
SMILES | A647 autofl | AID923 | TSHR agonist | Resorufin fluor | A488 fluor
Cn1c(=O)c2c(nc(SCCN3CCCCC3)n2Cc2ccc(Cl)cc2)n(C)c1=O | 1.99e-08 | . | . | i | i
Oc1c(Cl)cc(CN(Cc2cc(Cl)c(O)c(Cl)c2)C2CCCCC2)cc1Cl | 2.83e-08 | -1.4%[11.5 µM] | ? | i | i
Cc1onc(-c2ccccc2Cl)c1C(=O)Nc1nn[nH]n1 | . | 2.2% | ? | . | .
COc1cccc(NC(=O)c2ccccc2-c2nc(-c3ccc(Cl)cc3)no2)c1 | 6e-09 | 0.3% | ? | i | i

Further records follow.
SMILES | A647 autofl | AID923 | TSHR agonist | Resorufin fluor | A488 fluor
COC(=O)c1ccc(OC(=O)c2nn(C)cc2Cl)c(OC)c1 | . | 3.2% | 15.4% | . | .
Cn1c(SCc2cnc(-c3ccccc3)s2)nnc1C1COc2ccccc2O1 (stereo not given) | 1e-09 | -1.4% | ? | i | i
CCCCCCN(C(=O)CCCCCN1C(=O)NC(c2ccc(-c3ccccc3)cc2)C(C(=O)OCc2ccccc2)=C1C)C(C(=O)NCCCC)c1cccc(C(=O)OC)c1 (stereo not given) | . | 2.5% | -0.9% | . | .
O=C(c1ccc2c(c1)C(=O)N(Cc1ccco1)C2=O)N1CCOCC1 | 1.49e-08 | 0.3% | 18.4% | i | i
CSc1ccc2c(c1)N(CCC1CCCCN1C)c1ccccc1S2 (stereo not given) | 3.42e-08 | -1.0% | . | i | i
CC(=O)N[C@H](Cc1ccc(O)cc1)C(=O)O | 1.7e-09 | 2.0%[11.5 µM] | -4.3%[11.4 µM] | i | i
O=C1CC(C(=O)Nc2ccccc2C(=O)O)C(c2ccccc2)O1 (stereo not given) | 1.9e-09 | -0.6% | 5.8%[11.4 µM] | i | i
Cc1cccc(N(CC(=O)NCC2CCCO2)C(=O)CCC(=O)Nc2cc(C)on2)c1 (stereo not given) | 9e-09 | -0.8% | -4.8% | i | i
Cc1occc1C(=O)N1CCN(c2ncccn2)CC1 | . | -2.3% | 6.3%[11.4 µM] | . | .
Cc1ccc(OCC(=O)NCC(=O)n2nc(C)cc2C)cc1 | 1e-09 | . | . | i | i
CC(C)N1C[C@@]23C=C[C@@H](O2)C(C(=O)OCc2ccccc2)[C@H]3C1=O (stereo not given in full) | 1e-09 | 0.4% | -0.1% | i | i
Cc1cccc(-c2c3c(=O)n(C)c(=O)n(C)c3c3nnc4ccccc4n23)c1 | 1.1e-09 | 0.6% | 17.7% | i | i
COc1ccc(S(=O)(=O)Nc2c(C)n(C)n(-c3ccccc3)c2=O)cc1 | 4.63e-08 | -2.7% | 4.2% | i | i
COc1ccc(NC(=O)c2oc3ccccc3c2NC(=O)C2CC2)cc1 | 2.58e-08 | 1.7% | . | i | i
Cc1cccnc1NC(=O)Nc1ccc(F)cc1 | . | 1.9% | 4.3% | . | .
C[N+](C)(C)CCOP(=O)([O-])OC[C@H](O)CO | 1.08e-08 | . | . | i | i
COc1ccc(-c2nc(N)nc(C)c2Oc2ccccc2Br)c(O)c1 | 1e-09 | 2.5% | . | i | i
COc1ccc(-c2noc(CN3CCN(c4ccccc4F)CC3)n2)cc1OC | 1.68e-08 | -1.1% | 13.3% | i | i
CCSc1ccccc1C(=O)N1CCN(c2ccccc2F)CC1 | 1e-09 | 2.3% | 17.5% | i | i
COC(=O)c1ccccc1 | . | -1.6% | ? | . | .
O=C(Nc1ccc2c(c1)OCCO2)c1ccccc1F | . | -0.4% | 12.7%[11.4 µM] | . | .
O=C1CSC(=O)N1CCOCCN1C(=O)CSC1=O | 1e-09 | -0.8% | -4.6% | i | i
CCc1cccc(NC(=O)Cn2cc3c(n2)CCCC3)c1 | . | -1.2% | 7.9% | . | .
Cc1cc(C)c2c(SCc3ccc(Cl)cc3Cl)nc(N)nc2n1 | 1.8e-09 | 0.1%[11.5 µM] | 8.3%[11.4 µM] | i | i
COc1ccc(Cl)cc1NC(=O)N1CCN(S(C)(=O)=O)CC1 | 4.06e-08 | -0.6% | 4.1% | i | i
CC(=O)c1sc(-c2c(C)nc3sccn23)nc1C1CCCC1 | 1e-09 | 2.9% | ? | i | i
CC1(C)C2CCC1(C)C(NC(=O)CCN1CCCCC1)C2 (stereo not given) | 1.35e-08 | . | . | i | i
C=CCn1c(CCCNC(=O)CCC)nc2ccccc21 | 6.1e-09 | -1.2% | -1.0%[11.4 µM] | i | i
O=C1c2oc3ccc(Cl)cc3c(=O)c2C(c2ccco2)N1CCN1CCOCC1 (stereo not given) | . | 2.0% | 5.5% | . | .
COc1ccc(C2CC(=O)C(C=NCCN3CCOCC3)=C(O)C2)cc1 (stereo not given) | 2.29e-08 | . | . | i | i

Four entries from above, with two lines to a compound.
Each structure is followed by: A647 autofl, AID923, TSHR agonist, Resorufin fluor, A488 fluor
CC(=O)c1sc(-c2c(C)nc3sccn23)nc1C1CCCC1
  1e-09, 2.9%, ?, i, i
CC1(C)C2CCC1(C)C(NC(=O)CCN1CCCCC1)C2 (stereo not given)
  1.35e-08, ., ., i, i
C=CCn1c(CCCNC(=O)CCC)nc2ccccc21
  6.1e-09, -1.2%, -1.0%[11.4 µM], i, i
O=C1c2oc3ccc(Cl)cc3c(=O)c2C(c2ccco2)N1CCN1CCOCC1 (stereo not given)
  ., 2.0%, 5.5%, ., .

(listing goes on)
SMILES | A647 autofl | AID923 | TSHR agonist | Resorufin fluor | A488 fluor
CCOC(=O)CCc1c(C)nc(SCCN2CCCC2)c(C#N)c1C | 5.9e-09 | -0.5% | ? | i | i
O=C(c1ccc(NC(=O)C2(c3ccccc3)CCOCC2)cc1)N1CCOCC1 | 7.9e-09 | 0.9% | ? | i | i
CSCCC(NC(N)=O)C(=O)N(C)CC(=O)Nc1ccc(C)cc1 (stereo not given) | 4.3e-09 | -2.2% | 3.1% | i | i
COc1ccc(N(CC(=O)NC2CCCCC2)C(=O)CCCC(=O)Nc2ccccn2)c(OC)c1 | 1e-09 | 0.5% | 5.5% | i | i
O=S(=O)(c1ccc2oc3ccc(S(=O)(=O)N4CCCC4)cc3c2c1)N1CCCC1 | 1.72e-08 | -5.4% | 10.7% | i | i
O=S(=O)(c1ccc2c(c1)nc1n2CCC1)N1CCOCC1 | 1e-09 | 0.9% | 0.9% | i | i
c1ccc(COc2cccc(CNn3cnnc3)c2)cc1 | 3.3e-09 | 0.7% | 17.1% | i | i
Cc1ccc(Nc2cc(-n3nc(C)cc3C)ncn2)cc1 | . | 0.0% | 1.8%[11.4 µM] | . | .
CN1c2ccccc2-c2nc3ccccc3n2C1c1ccco1 (stereo not given) | 1.76e-08 | . | . | i | i
CC1CCN(S(=O)(=O)c2ccc(S(=O)(=O)NCC(=O)C(C)(C)C)cc2)CC1 | 5.06e-08 | 0.6% | -1.3% | i | i
Cc1cc(NC(=O)CN2C(=O)CC(c3ccco3)Sc3ccccc32)no1 (stereo not given) | . | 0.5% | 2.1% | . | .
O=C(O)c1cccnc1C(=O)O | 2.91e-08 | -2.0% | ? | i | i
CCc1nnc(NC(=O)C2CC(=O)N(CCc3ccccc3)C2)s1 (stereo not given) | 5.1e-09 | 0.5% | 18.2% | i | i
C(=N\C(/N=C/c1ccco1)c1ccco1)/c1ccco1 | 1e-09 | 1.3% | 9.2% | i | i
C=CCn1c(-c2ccc(OC)cc2)nc2ccccc21 | 3.28e-08 | 0.0% | ? | i | i
COc1ccc(S(=O)(=O)NCC(=O)N(CC(=O)NCC2CCCO2)c2ccccc2C)cc1 (stereo not given) | 1e-09 | -3.2% | -6.7% | i | i

Bioassay records deposited in PubChem by National Center for Advancing Translational Sciences (NCATS).
